Bioassay records: PubChem, ICCB-Longwood Screening Facility, Harvard Medical School
CapD inh – Bacillus anthracis CapD inhibitors, primary screen, biochemical, fluorescence intensity. purified CapD enzyme, fluorescence intensity read-out; active compounds read low; some hits fall short of the stated cut. z-score (concentration not given with the values). CapD gamma-glutamyltranspeptidase (Bacillus anthracis Ames Ancestor). actives 0.23% (n = 140,000);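 active = z-score under -4 in either of two replicates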;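 also: stock transfer was 100 nL into about 40 µL; score is relative to mean and spread of the plate; one replicate is shown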
AID504770 – growth inhibition of E. coli YBA685, primary screen, V. cholerae RctB inhibitors | E. coli YBA685 rctB-dependent plasmid, OD600 growth, 3 h; active compounds read low | z-score (no concentration beside the values) | actives 0.27% (n = 130,000) | AID 504770, 2011;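 active = z-score under -2 on both plates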;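 also: wells of about 30 µL received 100 nL stock; score is relative to mean and SD of the test wells; the first replicate is given; strong numbers were not always called active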
Numbers without * were called inactive; · = no result given. Outcome played no part in choosing rows, and some 0.41% of all compounds hit somewhere here.

molecule | CapD inh | AID504770
O=C(/C=C/c1ccc(F)cc1)Nc1nc2ccccc2s1 | 0.35 | -0.4
CCn1cc(C(=O)OCC(=O)N2C(C)CCCC2C)c(=O)c2ccc(C)nc21 (centres undefined) | · | -0.1
Cc1c(N(CC(=O)O)S(=O)(=O)c2ccccc2)c(=O)n(-c2ccccc2)n1C | -0.18 | ·
O=C1c2cc(S(=O)(=O)NCCO)ccc2-c2ccc(S(=O)(=O)NCCO)cc21 | 0.075 | ·
O=C(CSc1ncnc2sc3c(c12)CCCC3)Nc1ccccc1 | -0.35 | -0.6
COc1ccc(CSc2nnc(C)s2)cc1F | · | 0.95
O=C(Nc1cccc(-c2ccc3nncn3n2)c1)c1ccco1 | · | 0.4
CCS(=O)c1ccccc1C(=O)OCC(=O)NCc1ccc(C)cc1 (centres undefined) | · | -2.1
Cc1ccc(OCCNC(=O)C2CCCCC2)cc1 | -0.06 | -0.8
CN(C)C(=O)CSc1nc(-c2ccccc2)c(-c2ccccc2)o1 | 8.7 | 1.6
Cc1nc(-c2ccc(S(=O)(=O)N3CCCN(c4ccc(C(F)(F)F)cn4)CC3)s2)cs1 | 0.79 | 0.45
Cc1snc(SCc2nc(COc3ccc(F)cc3)n[nH]2)c1C#N | 1.7 | ·
COc1cc(OC)nc(C2CCCCC2C(=O)NCC2CCCO2)n1 (centres undefined) | -0.22 | ·
O=C1c2ccccc2S(=O)(=O)N1CC(O)COc1ccc(Cl)cc1 (centres undefined) | 0.4 | ·
CC1(C)CC(=O)C/C(=N/NC(N)=S)C1 | -0.02 | -0.1
O=C(CN1CCN(CCN2C(=O)c3cccc4cccc(c34)C2=O)CC1)c1ccc(F)cc1 | 13 | ·
c1ccc(C2CC3CC(c4ccccc4)N2O3)cc1 (centres undefined) | -0.46 | 1.2
Cn1nc(C(F)(F)F)c2cc(-c3n[nH]c(=S)n3-c3ccccc3)sc21 | 9.8 | ·
CN1CCn2ccc3[nH]c(=O)nc1c32 | 1.2 | 2.5
CC1CCN(C(=O)CSc2nnc3sc4ccccc4n23)CC1 | -0.11 | -0.85
O=C(CSc1nnc(Cc2ccccc2)o1)NCC(=O)Nc1ccc(F)c(F)c1F | · | -0.75
Cn1c(=O)c2cc(S(=O)(=O)NC(C(=O)N3CCCCCC3)c3ccccc3)ccc2n(C)c1=O (centres undefined) | 1.1 | -0.4
COc1cccc(NCc2nnc(SC(C)c3nc4ccccc4c(=O)[nH]3)n2C2CCCCC2)c1 (centres undefined) | · | 1.3
O=C(/C=C\c1cn(-c2ccccc2)nc1-c1cccs1)N1CCOCC1 | 14 | 0.1
O=[N+]([O-])c1ccc(N2CCN(c3ncnc4c3cnn4-c3ccccc3)CC2)cc1 | -0.29 | ·
N#C/C(=C\c1ccc(-c2cccc(C(F)(F)F)c2)o1)c1ccccc1 | 0.55 | 0.6
OC1C2CCCC1C(N1CCCC1)CC2 (centres undefined) | -0.17 | -1.2
CCn1c(SCCOc2ccc(OC)cc2)nnc1C(CO)NC(=O)c1ccc(OC)cc1 (centres undefined) | -0.42 | 0.3
N#Cc1ccc(OCCOC(=O)Cn2cnnn2)cc1 | · | 0.25
O=C1c2ccccc2C(=O)N1CCCCn1c(=O)oc2ccccc21 | · | -1.2
CCN(CC)c1ccc2cc(-c3nnc(-c4cccnc4)o3)c(=O)oc2c1 | -0.23 | -0.4
CCOc1cc(C2C3=C(CC(C)(C)CC3=O)Nc3ccccc3N2C(=O)c2ccccc2)ccc1O (centres undefined) | -0.3 | ·
O=C(Nc1ccno1)N1CCOCC1 | 10 | -2.8
C=CCOC(=O)C1=C(C)OC(N)=C(C#N)C12C(=O)Nc1ccccc12 (centres undefined) | -0.16 | ·
O=C(O)c1onc2ccccc12 | -1 | ·
CCS(=O)(=O)N1CCc2cc(OC)c(OC)cc2C1c1ccc(OC)c(OC)c1 (centres undefined) | · | -0.25
CN(C)c1ccc(/C=C2/SC(=Nc3ccccc3)NC2=O)cc1 | · | 1.9
CCCn1cnc2sc(C(=O)N3c4ccc(F)cc4CCC3C)c(C)c2c1=O (centres undefined) | 0.36 | ·
O=C(Cc1cccs1)N1CCN(c2ccccc2)CC1 | -0.26 | -0.55
CNC(=O)CCCc1nc(-c2ccccc2)no1 | -0.47 | -0.6
CCOC(=O)C1=C(C)N=c2s/c(=C\c3ccc(C)c(OC)c3)c(=O)n2C1c1cc(OC)ccc1OC (centres undefined) | 0.35 | ·
CN(C(=O)Cn1nnc(-c2ccccc2Cl)n1)c1ccccc1 | · | 0.15
CCn1c(SCC(=O)NC(C)(C)C)nnc1-c1cccc(C)c1 | · | -0.1
O=C(CC1Cc2ccccc2C1)N1CCN(C/C=C/c2ccccc2)CC1 | -0.62 | ·
Cc1nc2c(Br)cc(Br)cc2c(=O)n1Cc1cccs1 | 0.22 | 0
CCSc1nc2ccccc2n1CC(=O)N1CCCCC1 | -0.11 | -0.65
O=C(O)CCc1ccc(F)cc1 | 0.27 | -0.85
COc1c(C(C)=O)c(O)c(OC)c2occc12 | -0.27 | ·
C1CCN(CC2COC3(CCCC3)O2)C1 (centres undefined) | -0.36 | -0.7
CN(C)C(=O)c1cc(-c2ccccc2)c(C(F)(F)F)s1 | -0.36 | -0.85
COc1ccc(N2CCN(C(=O)c3ccc(-n4cnnc4)cc3Cl)CC2)cc1 | -0.095 | -0.75
COc1ccc(CCNC(=O)c2ccc(Cn3c(=S)[nH]c4cc(C(=O)O)ccc4c3=O)cc2)cc1OC | -0.56 | ·
N#CC1=C(N)NC(SCc2ccccc2)=C(C#N)C1c1ccccc1Cl (centres undefined) | 28 | 0.1
O=C(CCN1CCCCC1)c1cc2ccccc2o1 | 1.1 | 0.35
CCS(=O)(=O)N1CCCC(C(=O)NCCN(C)C)C1 (centres undefined) | -0.58 | -0.4
O=C(NCc1ccccc1)C1CCCN1S(=O)(=O)c1cccc2cccnc12 (centres undefined) | 0.25 | -0.3
CCN/C(C)=C/c1nsc(Nc2ccc(Cl)cc2)n1 | 0.41 | -0.25
CC(C)(Oc1ccc(Cl)cc1)C(=O)Nc1ccc2oc(-c3cccnc3)nc2c1 | 11 | -0.35
O=C(NN1CCCCC1)C(O)(c1ccsc1)c1ccsc1 | 0.5 | 0.65
CC1(C)CCc2cc(CN3CCN(c4ccc(C(F)(F)F)cn4)CC3)ccc2O1 | 0.26 | -0.35

Brought forward from above: 2 entries, then new ones.
Molecule	CapD inh	AID504770
O=C(NN1CCCCC1)C(O)(c1ccsc1)c1ccsc1	0.5	0.65
CC1(C)CCc2cc(CN3CCN(c4ccc(C(F)(F)F)cn4)CC3)ccc2O1	0.26	-0.35
Cc1cc(=O)n2[nH]c(SCc3ccc(Cl)cc3)nc2n1	1.1	-0.2
O=C(O/N=C/c1ccc(Oc2ccc(Cl)cc2)c([N+](=O)[O-])c1)c1ccccc1	0.33	·
O=C(Cn1cnc2ccccc21)N1CCCC1	·	0.15
COc1ccccc1OCC#CCSc1ncccn1	0.02	1.6
CCOC(=O)C1=C(CSc2nc3c(cc2C#N)CCC3)OC(N)=C(C#N)C1c1cccs1 (centres undefined)	0.28	·
CC(O)CNC(C)C(=O)Nc1c(Cl)cc(Cl)cc1Cl (centres undefined)	·	-0.75
CCOC(=O)c1sc(COc2ccccc2OC)nc1C	-2.7*	3
CC(Cc1ccccc1)NCc1ccccc1O (centres undefined)	-0.36	-1.6
O=C(CSc1ncnc2c1oc1ccccc12)NC1CCCCC1	-0.11	-0.65
O=C(Nc1ccc(Cl)cc1)Sc1ccc(F)cc1F	-0.01	·
COc1ccc(Cc2cc(-c3cccs3)n[nH]c2=O)c(OC)c1OC	-0.35	-2.6
CCCN(CC(=O)Nc1ccccc1OC)CC(=O)c1c(N)n(Cc2ccccc2)c(=O)n(C)c1=O	·	1.4
Cc1noc(C)c1NC(=O)NCC1CCN(S(=O)(=O)c2ccccc2)CC1	-0.33	0.3
COc1ccc(S(=O)(=O)N(c2ccc3c(c2)N(C(C)=O)CC3)C2CCN(Cc3ccccc3)CC2)cc1	-0.4	·
CSc1ccc(-c2ccco2)nn1	-0.01	-1.1
CN(C(=O)CSC1=NCCS1)C1CCCCC1	0.54	-0.85
CC(=O)Nc1ccc(C(=O)OCC(=O)N2CCCC(C)C2)cc1 (centres undefined)	-0.48	2.4
COc1ccc(NS(=O)(=O)c2cc(S(=O)(=O)c3ccc(OC)cc3)c3c4c(cccc24)C(=O)N3)cc1	-0.53	·
CCOC(=O)CC1C(=O)NCCN1C(=O)c1ccc(Cl)cc1Cl (centres undefined)	-0.21	·
O=S(=O)(c1ccc2c(c1)OCCO2)N1CCCCC1	·	-0.15
COC(=O)c1sccc1NC(=O)c1cc(-c2ccccc2Cl)nc2ccccc12	0.3	·
CCOc1ccc(/C=N/NC(=O)c2cc(Cl)ccc2OC)cc1OC	1.4	·
CC1Cc2ccccc2N1C(=O)CSc1ccccc1 (centres undefined)	-0.23	-0.3
O=C(O)C1CCCCC1C(=O)NCC1CCCO1 (centres undefined)	-0.71	0
O=C(COc1ncnc2sccc12)N1CCc2ccccc21	·	0.85
CC(NCC(O)COc1ccc(Br)cc1)c1ccccc1 (centres undefined)	-0.065	-1.4
Cc1cc(=O)[nH]c(N2CCCCC2)n1	-0.04	-0.5
CCCSc1ccc2nc(NC(C)=O)[nH]c2c1	0.4	0.65
CC(C)(C)OC(=O)N1CCCN(S(=O)(=O)c2cc(Cl)ccc2Cl)CC1	0.36	-0.45
CCC(=O)Nc1cccc(NC(=O)CSc2nnnn2C2CCCC2)c1	·	1.8

The closing 3 compounds of the part before open the next one.
Molecule	CapD inh	AID504770
CCCSc1ccc2nc(NC(C)=O)[nH]c2c1	0.4	0.65
CC(C)(C)OC(=O)N1CCCN(S(=O)(=O)c2cc(Cl)ccc2Cl)CC1	0.36	-0.45
CCC(=O)Nc1cccc(NC(=O)CSc2nnnn2C2CCCC2)c1	·	1.8
C/C(=N\NC(=O)COc1ccc(C#N)cc1)c1ccc(N2CCOCC2)cc1	·	0
O=C(NCc1ccccc1Cl)c1cnccc1C(F)(F)F	1.1	0.75
COc1ccc(OCCOC(=O)c2ccc(OCc3c(C)noc3C)cc2)cc1	·	0.35
COc1ccc(-c2cc(=O)oc3c(C)c(O)ccc23)cc1	0.36	2.7
CCc1cccc(NC(=O)C2CCCN(c3ncccn3)C2)c1 (centres undefined)	·	-0.7
O=C(NC1CCCCC1)C1CCC(Cn2c(=S)[nH]c3ccccc3c2=O)CC1 (centres undefined)	-1.4	0.15
C=CCn1cnnc1SCC(=O)NCc1cc(C)c(O)c(C)c1	·	0.5
Cc1nn(C)c(C)c1NC(=O)CC12CC3CC(CC(C3)C1)C2	-0.24	-1
Cn1c(O)c(C=Nc2cccc(Cl)c2)c2ccccc21	-0.6	1.6
COc1ccc2cc(S(=O)(=O)n3nnc4ccccc43)ccc2c1	1	-0.05
CCc1ccc(C(=O)Nn2cnnc2)cc1	0.7	-0.65
CCN1CCCC1CNC(=O)Cn1c(=O)c2cccn2c2ccccc21 (centres undefined)	-0.035	-0.3
Cc1nn(CC(C)C)c2sc(C(=O)N3CCCC3c3nc4ccccc4s3)cc12 (centres undefined)	·	-0.25
NC1c2ccccc2CCC1Cc1ccco1 (centres undefined)	·	-0.75
O=C1NN=C(c2cc3ccccc3oc2=O)CC(c2ccco2)N1 (centres undefined)	4.9	-0.3

Arranged by SMILES length (rising): 4 of the compounds above.
Molecule	CapD inh	AID504770
O=C(NCc1ccccc1Cl)c1cnccc1C(F)(F)F	1.1	0.75
Cc1nn(C)c(C)c1NC(=O)CC12CC3CC(CC(C3)C1)C2	-0.24	-1
C/C(=N\NC(=O)COc1ccc(C#N)cc1)c1ccc(N2CCOCC2)cc1	·	0
O=C(NC1CCCCC1)C1CCC(Cn2c(=S)[nH]c3ccccc3c2=O)CC1 (centres undefined)	-1.4	0.15

Following part.
Molecule	CapD inh	AID504770
O=S(=O)(Cc1ccccc1)n1cc(Cl)cn1	-1.9	1.5
Cc1cc(C)nc(N2CCC(C(=O)N3CCc4ccccc4C3)CC2)n1	0.94	·
CCC(C)(Nc1n[nH]c(=O)[nH]c1=O)C(=O)O (centres undefined)	-1.2	2.2
CC(C)c1ccccc1-n1cc[nH]c1=S	·	1.1
Cc1cc2c(NC(=O)CSCC(=O)O)cccc2nn1	0.4	0.1
O=C1OC(c2ccc(Cl)cc2)=N/C1=C\N1CC2CC(C1)c1cccc(=O)n1C2 (centres undefined)	-0.66	0.9
O=c1oc2ccccc2cc1-c1nnc(-c2ccncc2)o1	·	-0.65
N#Cc1nc(-c2ccccc2Cl)oc1N1CCCC1	20	1.4
COc1ccccc1/C=C/C(=O)N1CCCC(c2ccccc2)C1 (centres undefined)	-1.5	0.15
Cc1onc(-c2c(Cl)cccc2Cl)c1NC(=O)N/N=C/c1ccccn1	-1.1	-0.25
CCOCC(=O)Nc1ccc(OCC)cc1	-0.06	-1.4
NC(N)=Nc1nc2ccccc2[nH]1	0.48	-1
O=C1Nc2ccccc2C1(O)C(F)(F)F (centres undefined)	0.26	-0.2
Cc1onc(C(=O)NNC(=O)Cc2nc(-c3ccccc3)sc2C)c1-c1csc(-c2ccccc2)n1	1.6	·
